nsP2pro inh – blocks chikungunya virus nsP2 protease peptide cleavage; Q8JUX6; FRET peptide cleavage, nsP2pro, fluorescence 1 h; Potency, µM (highest dose often 24.9 µM), without a hit: at the highest dose activity change, negative = inhibition, usual class: inhibitors; actives 1.1% (n = 31,000); AID 1964107; active means well fitted inhibition curve with a large enough effect; inconclusive means small, poorly fitted or top-dose-only effect; inactive means no such curve, though single readings can be large or run the other way; further: nearly all actives have a fitted effect of over 60% in size; a reference inhibitor and vehicle were the controls
Target sequence (Q8JUX6 whole entry, looked up): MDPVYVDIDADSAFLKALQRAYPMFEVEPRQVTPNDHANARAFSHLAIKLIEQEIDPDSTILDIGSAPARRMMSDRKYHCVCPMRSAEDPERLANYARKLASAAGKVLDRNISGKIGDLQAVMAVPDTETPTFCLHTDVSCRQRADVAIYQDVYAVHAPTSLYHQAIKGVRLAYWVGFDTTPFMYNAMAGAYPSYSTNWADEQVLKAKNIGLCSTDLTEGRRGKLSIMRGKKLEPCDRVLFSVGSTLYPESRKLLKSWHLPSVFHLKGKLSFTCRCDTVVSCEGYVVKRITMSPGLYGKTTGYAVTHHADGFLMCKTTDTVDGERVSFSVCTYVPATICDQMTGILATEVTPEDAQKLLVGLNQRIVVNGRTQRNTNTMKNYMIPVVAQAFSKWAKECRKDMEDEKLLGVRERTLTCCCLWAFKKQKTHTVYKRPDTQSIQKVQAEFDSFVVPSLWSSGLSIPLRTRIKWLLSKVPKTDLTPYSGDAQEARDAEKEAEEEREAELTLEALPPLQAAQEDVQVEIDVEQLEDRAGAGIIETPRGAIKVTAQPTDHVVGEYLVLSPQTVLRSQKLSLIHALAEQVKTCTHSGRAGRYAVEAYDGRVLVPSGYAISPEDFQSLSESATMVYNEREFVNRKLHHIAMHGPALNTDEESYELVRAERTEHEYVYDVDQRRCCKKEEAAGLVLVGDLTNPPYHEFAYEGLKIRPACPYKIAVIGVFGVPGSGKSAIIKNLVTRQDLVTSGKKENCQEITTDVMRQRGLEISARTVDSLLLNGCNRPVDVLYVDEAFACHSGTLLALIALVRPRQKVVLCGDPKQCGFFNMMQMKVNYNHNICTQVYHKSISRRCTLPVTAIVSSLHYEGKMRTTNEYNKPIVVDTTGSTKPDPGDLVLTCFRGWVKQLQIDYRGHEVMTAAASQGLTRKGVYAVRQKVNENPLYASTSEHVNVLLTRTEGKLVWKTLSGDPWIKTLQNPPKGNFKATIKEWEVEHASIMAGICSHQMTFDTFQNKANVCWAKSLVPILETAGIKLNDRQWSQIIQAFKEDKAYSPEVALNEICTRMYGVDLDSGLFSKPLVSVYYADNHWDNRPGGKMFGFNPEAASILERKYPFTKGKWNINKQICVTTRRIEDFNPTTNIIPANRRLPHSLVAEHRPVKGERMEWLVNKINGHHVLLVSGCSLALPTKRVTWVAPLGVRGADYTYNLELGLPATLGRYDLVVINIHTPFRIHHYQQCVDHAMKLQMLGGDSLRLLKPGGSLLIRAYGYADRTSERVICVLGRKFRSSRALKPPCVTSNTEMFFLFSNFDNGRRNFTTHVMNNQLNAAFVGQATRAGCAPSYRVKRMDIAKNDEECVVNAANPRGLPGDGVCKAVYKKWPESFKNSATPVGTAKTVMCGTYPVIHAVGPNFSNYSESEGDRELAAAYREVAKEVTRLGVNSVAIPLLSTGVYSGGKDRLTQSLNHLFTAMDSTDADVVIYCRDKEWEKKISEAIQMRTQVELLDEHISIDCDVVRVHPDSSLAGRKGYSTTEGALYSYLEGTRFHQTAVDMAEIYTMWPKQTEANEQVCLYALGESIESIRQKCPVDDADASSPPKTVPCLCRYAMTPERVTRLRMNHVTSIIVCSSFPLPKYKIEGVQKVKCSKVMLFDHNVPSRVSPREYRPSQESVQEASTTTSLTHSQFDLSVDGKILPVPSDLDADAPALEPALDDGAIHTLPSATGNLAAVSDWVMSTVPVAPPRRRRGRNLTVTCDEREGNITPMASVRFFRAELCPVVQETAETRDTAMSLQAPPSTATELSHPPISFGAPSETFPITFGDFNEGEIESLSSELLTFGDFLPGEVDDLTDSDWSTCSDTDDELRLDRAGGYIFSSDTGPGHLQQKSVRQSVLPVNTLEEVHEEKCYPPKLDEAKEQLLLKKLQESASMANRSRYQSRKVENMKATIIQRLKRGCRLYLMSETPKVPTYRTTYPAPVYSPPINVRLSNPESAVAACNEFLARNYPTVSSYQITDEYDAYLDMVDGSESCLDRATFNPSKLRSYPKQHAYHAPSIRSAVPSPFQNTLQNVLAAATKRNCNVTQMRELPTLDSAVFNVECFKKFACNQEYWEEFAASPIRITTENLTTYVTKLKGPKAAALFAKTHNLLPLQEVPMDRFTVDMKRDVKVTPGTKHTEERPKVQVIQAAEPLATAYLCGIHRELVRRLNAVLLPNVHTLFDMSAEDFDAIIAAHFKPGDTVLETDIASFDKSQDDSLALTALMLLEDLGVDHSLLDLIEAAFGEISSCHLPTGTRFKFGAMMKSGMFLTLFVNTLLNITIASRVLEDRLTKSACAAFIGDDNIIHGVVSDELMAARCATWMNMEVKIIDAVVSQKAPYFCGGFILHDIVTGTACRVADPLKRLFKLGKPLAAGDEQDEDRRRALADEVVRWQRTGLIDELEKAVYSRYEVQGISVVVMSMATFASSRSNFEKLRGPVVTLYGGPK
* hit, by the source's call; i = inactive; ? = inconclusive; & = joins results of further samples; [ ] = another dose, or the depositor's remark. On the % scale 0 is the no-effect control and ±100 the full control effect; potency means the concentration at half of the fitted maximal effect. These rows are one share of the data, so the mix of outcomes need not match the whole.

SMILES	nsP2pro inh
Cc1ccc(S(=O)(=O)NC[C@H]2OC[C@@H](N(C)C)[C@@H]2O)cc1	i
COc1ccccc1NC(=O)c1c(NCc2ccc(C)o2)sc2c1CCC(C)C2 (stereo not drawn)	?
Cc1ccc(-c2cn3c(n2)N(C(=O)c2cnn4cccnc24)CCC3)cc1	8%
Nc1cc(F)ccc1NC(=O)/C=C/c1cnn(C/C=C/c2ccccc2)c1	-8%&-11%
Cc1noc(C)c1S(=O)(=O)N(C)C1CCOc2ccccc21 (stereo not drawn)	-4%[39.2 µM]
CCN(CC)CCn1c2c(c(SCC(=O)Nc3cccc(C(F)(F)F)c3)nc1=O)CCC2	-5%
CC(C)CNc1ccc2c(n1)C(C)(C(=O)NCc1cccnc1)CN(Cc1ccccc1)C2 (stereo not drawn)	i
CC1(C)CCC[C@@]2(C)[C@H]1[C@H](O)C=C(CO)[C@]2(O)CO	-12%
CN1C(=O)c2ccccc2NC(=O)[C@]12O[C@@H]2c1ccccc1	-14%
CCC(Sc1nc2cc3c(cc2c(=O)n1CCCC(=O)NCc1ccc(OC)cc1)OCO3)C(=O)NCCCOC (stereo not drawn)	-16%
CCOc1ccc(NC(=O)c2cnn3c2NC(C)=C(C(=O)Nc2ccc(Cl)cc2)C3c2ccc(OC)c(OC)c2)cc1 (stereo not drawn)	-15%
Cn1cnc(S(=O)(=O)N2C[C@@H](Oc3ccccc3)C[C@H]2C(=O)N2CCOCC2)c1	-3%
CCOC(=O)c1ccccc1NC(=O)n1ncc2cc(Cl)ccc21	-23%
COc1ccc(C2(C(=O)N3CCCCCC3c3nc(-c4cccnc4)no3)CC2)cc1 (stereo not drawn)	i
CC1CCCCN1S(=O)(=O)c1ccc2[nH]c(=O)cc(C(=O)NCCc3ccc(Cl)cc3)c2c1 (stereo not drawn)	1%
O=C(O)c1ccc(O)c2ncc(N3CCOCC3)cc12	-21%
COc1ccc2c(c1)CCc1c(C(=O)Nc3cc(OC)c(Cl)cc3OC)noc1-2	-20%
CCOc1ccccc1-c1noc(-c2nc(C)no2)n1	-7%
C/C=C/c1ccc2c(c1)[C@@H](C)[C@H](c1ccc(O)cc1)O2	53%
CC(=O)c1cccc(Nc2cc(C)nc3nc(Cc4ccccc4)nn23)c1	-10%
C=C[C@H]1[C@H](O[C@@H]2O[C@H](CO)[C@@H](O)[C@H](O)[C@H]2O)OC=C(C(=O)OC)[C@H]1C[C@@H]1c2cc(O)c(O)cc2CCN1C(C)=O	?
O=C(c1ccc(F)cc1)N1C[C@@H]2C[C@H](C1)c1c(NS(=O)(=O)c3cccc(F)c3)ccc(=O)n1C2	?
CCN(CC)CCCCn1c(-c2ccccc2)nc2c(NCCOC)nc(C)nc21	3%
Cc1nn(CC(=O)NCc2ccc(F)cc2)c2ccccc12	-13%
Cc1cc2oc(C(=O)Nc3ccc(S(=O)(=O)N4CCCCCC4)cc3)cc(=O)c2cc1C	-6%
SMILES	nsP2pro inh
O=C(Nc1ccccc1)Nc1nnc(SCC(=O)N2CCCCC2)s1	-20%
COc1ccccc1C(=O)N1CCC2(C1)C(=NC1CCCCC1)NC(=O)N2c1cc(F)cc(F)c1 (stereo not drawn)	-5%
COc1ccc2ncnc(NCc3cccs3)c2c1-c1ccc2c(c1)OCO2	0%
O=C(c1ccccc1)N1CCC2(CC1)C(=O)NCN2Cc1ccc(Cl)cc1	-2%
CC(=O)Nc1ccc(CN2CCC3(C2)C(=O)N(C)c2ccccc23)cc1 (stereo not drawn)	i
CCS(=O)c1nc(-c2cccc(OCc3ccccc3)c2)cc(C(F)(F)F)n1 (stereo not drawn)	16%
COc1cc(OC)c(Nc2c3c(nc4nc(-c5cccs5)nn24)CCCC3)cc1Cl	22%
Cc1ccc2onc(CC(=O)N3CCN(c4ccccc4F)CC3)c2c1	-16%
CC(C)(N)C(=O)Nc1ccc(Cl)cc1C(=O)c1ccc[nH]1	0%
Cc1ccccc1OCc1ccc(-c2nc(C#N)c(N3CCC(C(N)=O)CC3)o2)o1	-8%
CC(=O)c1ccc(NC(=O)c2nc(-c3ccccc3)n(-c3ccccc3Cl)n2)cc1	-20%
O=C(NCc1cccc(C(F)(F)F)c1)c1nc2sccn2c1-c1ccccc1	i
COc1ccc(C(=O)N2CCCCC23Cc2ccccc2NC3=O)cc1 (stereo not drawn)	-1%[39.2 µM]
Cc1cc(NC(=O)C2CCN(c3cc(C(F)(F)F)ncn3)CC2)ccc1Br	i
COc1ccccc1N1CCN(S(=O)(=O)c2c(C)sc3ncn(CC(=O)Nc4ccc(C)cc4Br)c(=O)c23)CC1	1%
Cc1ccn(CCC(=O)NCc2cccnc2Oc2ccc(F)c(F)c2)n1	5%
CN(Cc1cccnc1)Cc1ccccc1C(F)(F)F	?
CCOC(=O)c1cc(-c2ccc(OC)cc2)n(CCC(=O)NCCc2ccc(OCC)c(OCC)c2)c1C	-16%
CC(C)C(=O)N1CCC2(CC1)OC(=O)N(Cc1ccccc1C#N)C2(C)c1ccccc1 (stereo not drawn)	-6%[39.2 µM]
COc1ccc(N(C)C(=O)c2c(C)oc3c2CN(Cc2ccc(F)cc2)CC3)cc1	-30%
CC1=C(CCC(C)CC(=O)O)[C@@]2(C)CCCC(C)(C)C2CC1=O (stereo partly drawn)	16%
O=C1CCCC2=C1C(c1ccccc1)N=C(Nc1nc3ccccc3o1)N2 (stereo not drawn)	4%
O=C(CSC1=Nc2ccccc2C2=NC(CC(=O)NC3CCCCC3)C(=O)N12)Nc1ccc(F)cc1 (stereo not drawn)	-10%
Cc1nn2c(=O)cc(COC(=O)c3ccc(NC(=O)CCc4ccccc4)cc3)nc2s1	-15%
CCSc1ncc(Cl)c(C(=O)Nc2sc(C(C)=O)c(C)c2C(=O)OC)n1	10%
SMILES	nsP2pro inh
CC(C)S(=O)(=O)Nc1ccc(F)c(C(=O)c2c[nH]c3ncc(-c4cccnc4)cc23)c1F	142%[activator]
Cn1cncc1C(N)(c1ccc(Cl)cc1)c1ccc2c(c1)c(-c1cccc(Cl)c1)cc(=O)n2C (stereo not drawn)	142%[activator]
COC(=O)N1CC2(CC2)C[C@H](C(=O)NO)[C@H]1C(=O)N1CCN(c2ccccc2)CC1	-27%&-6%
O=C(CCc1ccccc1)NCc1nc2cccnc2n1Cc1ccc(F)cc1	-7%
CNC(=O)c1cc(C)nc2onc(C3CCN(C(=O)c4ccccc4Cl)C3)c12 (stereo not drawn)	-10%
CCN1CC2ON=C(C(=O)O)C2C1 (stereo not drawn)	?
CC(C)N1C(=O)C2(CCCC2)C1C(=O)N1CCc2ccccc21 (stereo not drawn)	0%
CC(C)c1ccc(C(=O)CC2(O)C(=O)N(CCc3ccccc3)c3ccc(Cl)cc32)cc1 (stereo not drawn)	-6%
CN1CCN(C(=O)c2cnn(-c3ccccc3)c2C2CCN(C(=O)OC(C)(C)C)CC2)CC1	-12%
COc1ccc(C2=NC3(CCCCCC3)N(CC(=O)Nc3ccc(C)c(C)c3)C2=O)cc1	-27%
O=C(CCc1conc1-c1ccc(F)cc1)NCC1CCCO1 (stereo not drawn)	3%
OC[C@@H]1O[C@H](CNCc2ccc(F)cc2)[C@H](N2CCOCC2)[C@@H]1O	-19%[39.2 µM]
Cc1nc(NCc2ccccc2)c2nc(-c3ccccc3)n(CC3CCN(C)CC3)c2n1	i
CCN1CCOC(=O)C1CC(=O)Nc1ccc(C)c(Cl)c1 (stereo not drawn)	?
CC(=O)Nc1ccc(S(=O)(=O)N2CCN(S(=O)(=O)c3ccc4c(c3)OCCO4)CC2)cc1	5%
Cc1ccc(CCN2CCCCC23Cc2ccccc2CN([S+](C)(=O)[O-])C3)cc1 (stereo not drawn)	3%
COc1ccc(/C=C(\C#N)c2nc3ccccc3n2C)c(OC)c1	-12%
CC(C)(N)c1ncc(-c2ccc(OC(F)(F)F)cc2)[nH]1	112%[activator]
CCOc1ccc(Sc2cc(C(=O)NCCc3ccc(OC)c(OC)c3)c3ccccc3n2)cc1	-14%
O=C(c1ccc2c(c1)N(Cc1ccc(F)cc1)C(=O)c1ccccc1S2(=O)=O)N1CCN(c2ccccn2)CC1	-13%
COc1ccccc1CNC(=O)CCCn1nc(C)c2sc3ccccc3c2c1=O	-19%
CC(C)N(CCNC(=O)CN1CCCC1=O)C(C)C	-15%
O=C(c1ccc2c(c1)N(Cc1ccc(Cl)cc1)C(=O)c1ccccc1S2(=O)=O)N1CCCCCC1	-18%
O=C(c1ccc(-c2cccc(O)c2)nc1)N1CCCN(c2ncccn2)CC1	-2%
CC(C)Oc1ccc(NC(=O)c2cc3ccccc3o2)cc1	-24%
SMILES	nsP2pro inh
O=C(CCC1CCCC1)N1CCCC1c1nc(CCOCC2CC2)no1 (stereo not drawn)	3%
CC(C)NC(=O)c1nn(-c2ccccc2F)nc1CO	1%
Cc1ccc(NC(=O)Cn2c(CCC(=O)O)ccc2-c2cccs2)cc1Cl	?
O=C(O)Cc1cn([C@@H]2O[C@H](CO)[C@@H](O)[C@H](O)[C@H]2O[C@@H]2O[C@H](CO)[C@@H](O)[C@H](O)[C@H]2O)c2ccccc12	3%[10 µM]
Cc1nc(-c2ccccc2)oc1-c1ccc2ncnc(NCc3ncc[nH]3)c2c1	i
CCCn1cc(C(=O)N2CC(=O)N(c3cccc(C)c3)CC2C)c(C)n1 (stereo not drawn)	-7%
CCOC(=O)c1ccc(NC(=O)CN2CCCCC2)cc1	9%
Oc1ccc(-c2nn[nH]n2)c2cccnc12	i
Cc1ccc(CCNC(=O)C2COc3ccccc3C2)cc1 (stereo not drawn)	-13%
Cc1ccc(OCCn2c(CCNC(=O)CCc3ccc(N)cc3)nc3ccccc32)cc1	-20%
CCOc1ccc(OCC)c(NS(=O)(=O)c2c(C)[nH]c(=O)[nH]c2=O)c1	-31%
Cc1nn(-c2ccccc2)c2c1C(C)N(C1CCN(C(=O)NC3CCCC3)C1)C2=O (stereo not drawn)	i
COc1ccc(-c2nc3sc(CCNC(=O)c4cc(Cl)ccc4OC)c(C)n3n2)cc1	-20%
Cc1noc(C)c1-c1cnc(Nc2ccncc2)c2c1CCO2	?
Cc1nn(C)c(COc2ccc(N3CCN(S(=O)(=O)N(C)C)CC3)cc2)c1-c1cccc2c(CCCOc3cccc4ccccc34)c(C(=O)O)n(CCN3CCOCC3)c12	-7%
Cc1ccnc(NC(=S)N2CCN(c3ccc(C#N)cc3)CC2)c1	i
C=C1C[C@]23C[C@@]1(O)CC[C@H]2[C@@]12C=C[C@H](O)[C@@](C)(C(=O)O1)[C@H]2[C@@H]3C(=O)O	-12%
Cc1cccc(-c2nc(Cn3c(SCc4cc(C)ccc4C)nc4ccncc43)c(C)o2)c1	-8%
COc1ccc2c(c1)-c1nc(NC(=O)c3cc(Cl)ccc3OC)sc1CC2	-26%
CCOC(=O)N1CCC(NC(=O)c2ccc3c(c2)N(Cc2ccccc2)C(=O)c2ccccc2S3=O)CC1 (stereo not drawn)	-4%
COc1cc(NS(C)(=O)=O)ccc1Nc1c2ccccc2nc2ccccc12	-18%
c1ccc(N2CCCC(c3nccn3Cc3ccncc3)C2)nc1 (stereo not drawn)	i
Cc1nc(NC2CCCCC2)c2nc(-c3ccccc3)n(CCN(C)C)c2n1	1%
COc1cc(NS(=O)(=O)c2c(C(=O)N3CCCCC3)c(C)n(C)c2C)cc(OC)c1OC	-15%
Cc1cc(NC(=O)Nc2nnc(-c3cccnc3)s2)ccc1Br	3%

15 successive entries from above:
SMILES	nsP2pro inh
O=C(CCC1CCCC1)N1CCCC1c1nc(CCOCC2CC2)no1 (stereo not drawn)	3%
CC(C)NC(=O)c1nn(-c2ccccc2F)nc1CO	1%
Cc1ccc(NC(=O)Cn2c(CCC(=O)O)ccc2-c2cccs2)cc1Cl	?
O=C(O)Cc1cn([C@@H]2O[C@H](CO)[C@@H](O)[C@H](O)[C@H]2O[C@@H]2O[C@H](CO)[C@@H](O)[C@H](O)[C@H]2O)c2ccccc12	3%[10 µM]
Cc1nc(-c2ccccc2)oc1-c1ccc2ncnc(NCc3ncc[nH]3)c2c1	i
CCCn1cc(C(=O)N2CC(=O)N(c3cccc(C)c3)CC2C)c(C)n1 (stereo not drawn)	-7%
CCOC(=O)c1ccc(NC(=O)CN2CCCCC2)cc1	9%
Oc1ccc(-c2nn[nH]n2)c2cccnc12	i
Cc1ccc(CCNC(=O)C2COc3ccccc3C2)cc1 (stereo not drawn)	-13%
Cc1ccc(OCCn2c(CCNC(=O)CCc3ccc(N)cc3)nc3ccccc32)cc1	-20%
CCOc1ccc(OCC)c(NS(=O)(=O)c2c(C)[nH]c(=O)[nH]c2=O)c1	-31%
Cc1nn(-c2ccccc2)c2c1C(C)N(C1CCN(C(=O)NC3CCCC3)C1)C2=O (stereo not drawn)	i
COc1ccc(-c2nc3sc(CCNC(=O)c4cc(Cl)ccc4OC)c(C)n3n2)cc1	-20%
Cc1noc(C)c1-c1cnc(Nc2ccncc2)c2c1CCO2	?
Cc1nn(C)c(COc2ccc(N3CCN(S(=O)(=O)N(C)C)CC3)cc2)c1-c1cccc2c(CCCOc3cccc4ccccc34)c(C(=O)O)n(CCN3CCOCC3)c12	-7%

The results go on.
SMILES	nsP2pro inh
Cc1c(P(=S)(c2ccccc2)c2ccccc2)[n+]2ccccc2n1CCCc1ccccc1	i
CCOC(=O)c1c(C)c(C(=O)NCc2ccc(OC)cc2)c(C)n1CC	-11%
COc1ccc(-c2nc3ccc(NS(=O)(=O)c4ccccc4)cc3o2)cc1	11%
CCCCOc1ccc(C(=O)N/C(=C\c2ccc(Br)cc2)C(=O)NC2CCCCC2)cc1	-9%
O=[N+]([O-])c1cccc(S(=O)(=O)N2CCN(S(=O)(=O)c3ccc4c(c3)OCCO4)CC2)c1	-1%
Cc1ccc(-n2cnc3cc(C(=O)N4CCCCC4)ccc32)cc1	i
O=C1CCCC2=C1C(c1[nH]ncc1Cl)N=C(Nc1nc3ccccc3s1)N2 (stereo not drawn)	i
CCCN1CCN(CCCNC(=O)c2cc3c(=O)[nH]c4ccccc4c3s2)CC1	21%
O=c1c2c(nc3cc[nH]n13)CN(S(=O)(=O)c1cccc(C(F)(F)F)c1)CC2	i
O=C(Nc1ccc(-c2nc3ccccc3[nH]2)cc1)c1ccc(Oc2ccccc2)cc1	-7%

From PubChem BioAssay
